MLL CXXC-DNA inh: inhibitors of human MLL CXXC domain-DNA interaction. Q03164. MLL-CXXC / FITC-HOXA9 DNA fluorescence polarization. Potency, µM (series often up to 115 µM), for the others: top-dose activity change, negative = inhibition, most hits filed as inhibitors. 290,000 compounds, 0.037% hits. AID 2662; active = well fitted inhibition curve with a large enough effect in the polarisation, with a control signal flat, not every such curve was filed as active; inconclusive = small, poorly fitted or top-dose-only effect, or effect the other way, or a change in a side signal; inactive = no such curve, though single readings can be large or run the other way; the % refers to the polarisation
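Purified MLL-CXXC (added from a 7 uM solution) was preincubated 5 min at ambient with pinned compounds in 50 mM Tris-HCl pH 7.5, 50 mM NaCl, 1 mM DTT, 0.05% BSA. Fluorescein-labeled HOX-A9 DNA (50 nM solution) followed, 30 min, then polarization read.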
MBNL1-CUG inh: MBNL1-poly(CUG) RNA binding inhibition. Q9NR56. TR-FRET MBNL1-His/biotin-(CUG)12 binding, 665/545 ratio. Potency, µM (top dose mostly 57.5 µM), for inactives: at the top dose activity change, negative = inhibition, actives largely listed as inhibitors. 280,000 compounds, 0.036% hits; active = well fitted inhibition curve with a large enough effect in the signal ratio, with a control signal flat, not every such curve was filed as active; inconclusive = small, poorly fitted or top-dose-only effect, or effect the other way, or a change in a side signal; inactive = no such curve, though single readings can be large or run the other way; the % refers to the signal ratio; also: % is scaled to controls: 0 for no effect and ±100 for the full control effect
Target sequence (Q9NR56 whole entry, looked up): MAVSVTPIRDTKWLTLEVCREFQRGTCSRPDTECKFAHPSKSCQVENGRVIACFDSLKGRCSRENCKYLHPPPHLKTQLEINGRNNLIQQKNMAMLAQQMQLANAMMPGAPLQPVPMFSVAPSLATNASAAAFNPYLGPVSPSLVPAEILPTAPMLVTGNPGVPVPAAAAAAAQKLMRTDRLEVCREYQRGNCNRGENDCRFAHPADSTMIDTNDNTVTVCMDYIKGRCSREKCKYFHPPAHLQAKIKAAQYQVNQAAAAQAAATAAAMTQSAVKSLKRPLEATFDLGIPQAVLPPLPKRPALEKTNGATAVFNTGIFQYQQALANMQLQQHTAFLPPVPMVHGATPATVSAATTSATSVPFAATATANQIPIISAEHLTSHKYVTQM
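Compound titration spanned 92 nM–58 uM against the MBNL1-His/biotin-(CUG)12 complex. After 60 min at room temperature with 5 nM streptavidin-XL665 and 0.055 ng/ul terbium anti-His, ratiometric 665/545 nm emission (Ex 340 nm) normalized to controls.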
* marks the source's active call; other numbers are inactive results; ? = inconclusive; / = not tested or not shown; & = joins results of further samples. Potency is read from the fitted curve at half-maximal effect. Some of the compounds tested; most or all hits stand in other tables.

SMILES,MLL CXXC-DNA inh,MBNL1-CUG inh
Cc1ccc(-c2onc3ccc(C(=O)O)cc23)cc1,7%,?
CCOC(=O)c1c(C)oc2ccc(O)cc12,26%,-3%
CN1C(C(=O)Nc2ccccn2)=C(O)c2sccc2S1(=O)=O,14%,19%
C#C[C@]1(O)CC[C@H]2[C@@H]3CCC4=Cc5oncc5C[C@]4(C)[C@H]3CC[C@@]21C,13%,/
COc1ccc(C[C@H](C)NC[C@@H](O)c2ccc(O)c(NC=O)c2)cc1,-7%,/
CC(C)(C(=O)O)c1ccc([C@H](O)CCCN2CCC(C(O)(c3ccccc3)c3ccccc3)CC2)cc1,-1%,2%
Nc1ncnc2c1ncn2[C@@H]1O[C@H](CO)[C@@H](O)[C@H]1O,10%&-1%,4%
CN[C@H]1CC[C@@H](c2ccc(Cl)c(Cl)c2)c2ccccc21,/,-1%&0%
Cc1nn(-c2ccccc2)c(Cl)c1/C=N/NC(=O)c1ccncc1,-4%,/
CC(=O)Nc1ccc(Oc2ncccn2)cc1,1%,4%
Cc1cc(NS(=O)(=O)c2ccc(N)cc2)no1,10%,1%
CCOC(=O)N1CCC(=C2c3ccc(Cl)cc3CCc3cccnc32)CC1,7%&-12%&3%,17%&-4%

Grouped by structure: the entries above with sulfur.
SMILES,MLL CXXC-DNA inh,MBNL1-CUG inh
CN1C(C(=O)Nc2ccccn2)=C(O)c2sccc2S1(=O)=O,14%,19%
Cc1cc(NS(=O)(=O)c2ccc(N)cc2)no1,10%,1%

Filtered by structure, the entries above containing a COOH group
SMILES,MLL CXXC-DNA inh,MBNL1-CUG inh
Cc1ccc(-c2onc3ccc(C(=O)O)cc23)cc1,7%,?
CC(C)(C(=O)O)c1ccc([C@H](O)CCCN2CCC(C(O)(c3ccccc3)c3ccccc3)CC2)cc1,-1%,2%

Some of the entries so far, with two lines to a compound:
Values run as follows: MLL CXXC-DNA inh	MBNL1-CUG inh
- CN1C(C(=O)Nc2ccccn2)=C(O)c2sccc2S1(=O)=O
 : 14%	19%
- C#C[C@]1(O)CC[C@H]2[C@@H]3CCC4=Cc5oncc5C[C@]4(C)[C@H]3CC[C@@]21C
 : 13%	/
- COc1ccc(C[C@H](C)NC[C@@H](O)c2ccc(O)c(NC=O)c2)cc1
 : -7%	/
- CC(C)(C(=O)O)c1ccc([C@H](O)CCCN2CCC(C(O)(c3ccccc3)c3ccccc3)CC2)cc1
 : -1%	2%
